KCNQ2 inh = KCNQ2 channel blockers in CHO-K1 cells – cell-based, FluxOR thallium flux, B-score, primary screen (AID 2156) | 20 min; stronger effect = lower value; only compounds with negative scores are shown here; some inactives read as strong as hits | 1.1% of 310,000 active | B-score at 10 µM;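 active means fluorescence ratio B-score at most minus 3 library SDs, with starting brightness B-score within 2 library SDs, cut at about -5.5 in these data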
Target sequence (O88943 whole entry, looked up): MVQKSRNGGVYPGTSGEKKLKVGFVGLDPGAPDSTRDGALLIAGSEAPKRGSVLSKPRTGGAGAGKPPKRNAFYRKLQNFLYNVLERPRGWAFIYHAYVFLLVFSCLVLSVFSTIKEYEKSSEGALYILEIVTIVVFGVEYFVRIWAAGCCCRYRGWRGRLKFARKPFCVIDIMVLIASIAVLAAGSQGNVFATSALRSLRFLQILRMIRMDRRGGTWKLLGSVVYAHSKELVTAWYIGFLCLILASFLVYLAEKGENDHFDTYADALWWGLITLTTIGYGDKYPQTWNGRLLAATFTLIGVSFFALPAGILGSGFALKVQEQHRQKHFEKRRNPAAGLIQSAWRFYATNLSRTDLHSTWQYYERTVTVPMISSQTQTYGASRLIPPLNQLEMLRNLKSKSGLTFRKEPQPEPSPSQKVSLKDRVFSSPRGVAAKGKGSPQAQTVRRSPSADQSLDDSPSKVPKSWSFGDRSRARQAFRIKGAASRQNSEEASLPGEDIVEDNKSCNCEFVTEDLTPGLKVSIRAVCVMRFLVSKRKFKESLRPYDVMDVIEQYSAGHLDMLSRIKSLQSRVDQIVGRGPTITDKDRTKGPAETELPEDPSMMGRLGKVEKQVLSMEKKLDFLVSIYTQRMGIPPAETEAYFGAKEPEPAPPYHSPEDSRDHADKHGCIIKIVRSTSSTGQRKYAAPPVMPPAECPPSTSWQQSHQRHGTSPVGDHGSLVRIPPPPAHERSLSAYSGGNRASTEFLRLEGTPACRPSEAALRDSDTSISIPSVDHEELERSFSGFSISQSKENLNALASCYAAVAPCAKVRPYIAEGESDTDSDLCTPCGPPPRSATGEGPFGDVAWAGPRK
KCNQ2 inh baseline = further read-out of KCNQ2 inh, marked with its call; B-score; measured here: initial fluorescence intensity artifact check;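 brightness before thallium and not channel activity; 0 = typical well and far values either way flag optical interference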
* marks the source's active call; other numbers are inactive results; i = inactive. Only part of the results is shown; the hit share may differ from the screen's.

SMILES	KCNQ2 inh	KCNQ2 inh baseline
O=C(N[C@@H](Cc1c[nH]c2ccccc12)C(=O)NC1CC1)c1ccccc1Cl	i	2.62
COc1ccc(Br)cc1CN(C)C(=O)c1cc(Cl)c2c(c1)OCCO2	i	1.44
CC(C)(C)C(=O)[C@H]1[C@H](c2ccccc2)[C@@]2(N=C(c3ccccc3)OC2=O)C2c3ccccc3C=NN21 (stereo partly specified)	-6.2*	-0.72*
Cc1cc(NC(=O)CN2C(=O)c3ccccc3C2=O)no1	i	0.44
Cc1ccc(OC(C)C(=O)Nc2ccc3c(c2)n(C)c(=O)n3C)c(C)c1 (stereo unspecified)	i	-1.52
O=C(O)CC/C(=N\NC(=O)c1ccccc1Br)c1ccccc1	i	-1.71
CCCNC(=O)c1onc(CSc2ccc(F)cc2)c1C(=O)NCC1CC1	i	0.04
Brc1ccc(CN2CCN(c3ccccn3)CC2)s1	i	-0.98
CCN1C(=O)[C@H]2[C@@H](c3ccc(C)cc3)N3C(=O)N(c4ccccc4)C(=O)[C@@]3(CC)[C@H]2C1=O	i	0.14
O=C(COc1cc(Cl)c(Cl)cc1Cl)NCCc1ccccn1	i	-0.43
O=C(OCc1nnc(-c2ccccc2)o1)c1cc(F)c(F)cc1Cl	i	-0.71
COc1ccc(C2=NOC(C(=O)NCc3cccs3)C2)cc1 (stereo unspecified)	i	1.19
CCN(CC)C(=O)N1c2ccccc2CC(N(CC)CC)c2ccccc21 (stereo unspecified)	i	-0.02
NNC(=O)CSCc1ccc(Cl)cc1Cl	i	-3.05
COc1ccccc1N(CC(=O)NCc1ccco1)S(=O)(=O)c1ccc(C)cc1	i	-1.84
Cc1cc(Oc2ccccc2)nc(-c2ccccc2O)n1	i	1.67
CC1CCN(CCOCCOc2ccccc2Br)CC1	i	1.04
COc1ccc(N2CCN(C(=O)C3(C)CC3(Cl)Cl)CC2)cc1 (stereo unspecified)	i	0.16
O=S(=O)(NC1CCCC1)c1ccc(Br)s1	i	-0.72
COc1ccc(/C=C/C(=O)c2ccc[nH]2)cc1OC	i	-1.73

Another view of some results above:
Below each compound – KCNQ2 inh	KCNQ2 inh baseline
- CCCNC(=O)c1onc(CSc2ccc(F)cc2)c1C(=O)NCC1CC1
  i	0.04
- Brc1ccc(CN2CCN(c3ccccn3)CC2)s1
  i	-0.98
- CCN1C(=O)[C@H]2[C@@H](c3ccc(C)cc3)N3C(=O)N(c4ccccc4)C(=O)[C@@]3(CC)[C@H]2C1=O
  i	0.14
- O=C(COc1cc(Cl)c(Cl)cc1Cl)NCCc1ccccn1
  i	-0.43
- O=C(OCc1nnc(-c2ccccc2)o1)c1cc(F)c(F)cc1Cl
  i	-0.71
- COc1ccc(C2=NOC(C(=O)NCc3cccs3)C2)cc1 (stereo unspecified)
  i	1.19

New compounds follow:
SMILES	KCNQ2 inh	KCNQ2 inh baseline
CCOc1ccccc1-n1c(SCC(=O)Nc2nccs2)nnc1-c1ccoc1C	i	1.81
CCOC(=O)COc1cc(N2C(=O)CSCC2=O)c(Cl)cc1Cl	i	-1.29
O=S(=O)(NCc1ccc2c(c1)OCO2)c1ccc(Cl)s1	i	0.05
CC1CCc2c(C(=O)NCCN3CCOCC3)csc2C1 (stereo unspecified)	i	0.06
Cc1cc(OCc2cc(C(=O)N3CCC(Oc4cccnc4)CC3)no2)cc(C)c1Cl	i	-0.37
O=C1NCCC/C1=N/Nc1ccc(F)cc1	i	1.01
CCN(Cc1nc(-c2cccc(Cl)c2)no1)CC1CCCO1 (stereo unspecified)	i	0.02
CCN1C(=O)[C@H]2[C@@H](c3ccc(-c4ccc(F)cc4)c(OC)c3)N3CCC[C@@]3(C(=O)OC)[C@H]2C1=O	i	0.87
COc1cc(-c2ccccc2)nc(N)n1	i	-0.14
COc1ccc2cc(C(=O)/C=C/c3cc(OC)c(OC)c(OC)c3)ccc2c1	i	0.03
CN(C)CCNC(=O)c1cc2c(s1)-c1ccccc1OC2	i	-0.82
FC(F)(F)c1cc(-c2ccco2)nc(NCc2cccs2)n1	i	0.01
CCN(CCCNC(=O)C1CCN(S(=O)(=O)N2CCOCC2)CC1)c1cccc(C)c1	i	-0.34
CCOc1ccc(CN2CCCC(CNC(=O)c3ccc(F)cc3)C2)cc1CO (stereo unspecified)	i	0.75
CC1CN(C(=O)CCn2c(=O)oc3ccccc32)CC(C)O1 (stereo unspecified)	i	0.17
COCCCNC(=O)c1ccccc1Oc1ccccc1	i	-1.64
COc1cc(OC)c(OC)cc1CN1CCN(Cc2ccc(C(F)(F)F)cc2)CC1	i	0.69
CCc1ccc(C(=O)C(C)OC(=O)CNS(=O)(=O)c2ccc(C)cc2)cc1 (stereo unspecified)	i	0.61
CC(c1ccco1)N(C(=O)Nc1ccccc1)C1CCCCC1 (stereo unspecified)	-5.91*	0.05*
Cc1cc(NC(=O)CN2CCN(Cc3ccccc3)CC2)nc2c1c(=O)oc1ccccc12	i	0.77
CCC(=O)Nc1ccc(C(=O)NNC(=O)COc2cccc(C)c2)cc1	i	1.76
COCCOc1cc(NC(=O)c2cccc(OC)c2)c(Cl)cc1Cl	i	2.54
COc1ccc(Cl)cc1NC(=O)CNC(c1ccccc1)c1ccccc1	i	0.05
CC(C)CNC(=S)NC1CC2CCC(C1)N2Cc1ccccc1 (stereo unspecified)	i	1.7
CCOC(=O)c1cc(C(=O)OCC)cc(-n2cc(O)c(C(=O)OCC)n2)c1	i	0.69
CC(C)(C)C(=O)c1cn(CC(=O)O)c2ccccc12	i	3.07
O=C(CSc1ccc(F)cc1)NCCSc1ccccc1	i	3.03
O=C(CSc1n[nH]c(-c2ccccc2)n1)NC(=O)NCc1ccco1	i	-0.88
O=C(COC(=O)CNC(=O)c1ccccc1F)NCCNC(=O)COC(=O)CNC(=O)c1ccccc1F	i	-0.06
CC1Cc2ccccc2N1C(=O)CNCCCN(C)C (stereo unspecified)	i	2.18
CCS(=O)(=O)N1CCCC(c2nc(-c3cccc(OC)c3)no2)C1 (stereo unspecified)	i	0.01
NS(=O)(=O)c1ccc(CCNC(=O)CNC(=O)c2ccc(Oc3ccccc3)cc2)cc1	i	-0.26
Cn1nc(C(F)(F)F)cc1-c1ccc(/C=C(\C#N)C(=O)c2cccc(C(F)(F)F)c2)s1	i	2.86
Cc1ccc(OCC(O)CN2CC3(C)CC2CC(C)(C)C3)cc1 (stereo unspecified)	i	-1.54
CC(C)C[C@H](N)c1cn([C@@H](CCCCN)C(=O)N2CCNCC2)nn1	i	0.8
CN(C)/C=C/C(=O)c1cnc(-c2ccccn2)s1	i	-1.44
CCn1c(O)c(/C=C2\C=Nc3ccccc32)sc1=Nc1ccccc1	i	-2.6
O=C(c1ccc(F)cc1)N1CCC(O)(c2cccnc2)CC1	i	0.57
O=C(CCN1C(=O)C2C3C=CC(C3)C2C1=O)Nc1ccccn1 (stereo unspecified)	i	3.71
Cc1noc(C)c1COC(=O)Cn1c(C)nc2ccccc21	i	1.45

2 entries from above, with two lines to a compound.
Order of results – KCNQ2 inh, KCNQ2 inh baseline
CC1Cc2ccccc2N1C(=O)CNCCCN(C)C (stereo unspecified)
    i, 2.18
CCS(=O)(=O)N1CCCC(c2nc(-c3cccc(OC)c3)no2)C1 (stereo unspecified)
    i, 0.01

More records follow:
SMILES	KCNQ2 inh	KCNQ2 inh baseline
O=S1(=O)CCC(NC(=S)SCCOc2ccccc2)C1 (stereo unspecified)	i	-0.1
Cc1ccc(S(=O)(=O)NCC(c2ccco2)N2CCc3ccccc32)cc1 (stereo unspecified)	i	0.69
Cc1ccc(C(=O)Nc2ccc3cn[nH]c3c2)cc1S(=O)(=O)N1CCOCC1	i	-0.07
O=C(Nc1nc(-c2ccco2)c(-c2ccco2)s1)c1ccco1	i	-0.28
O=C(NCc1ccc(/C=c2\sc3n(c2=O)CCN=3)o1)C(=O)Nc1ccccc1	i	1.34
Cc1cccc(N2C(=O)SC(SC(=Nc3ccccc3)Nc3ccccc3)C2=O)c1 (stereo unspecified)	i	-0.46
O=C(Nn1c(C2CC2)nc2ccccc2c1=O)c1ccco1	i	-1.03
O=C1S/C(=C/c2ccccc2)C(=O)N1CC(O)Cn1c2ccccc2c2ccccc21 (stereo unspecified)	i	4.49
Cc1cc(N2CCCCC2)n2ncc(-c3ccccc3)c2n1	i	0.07
CCOC(=O)Cn1c(S(=O)(=O)Cc2ccc(Cl)cc2)nc(-c2ccccc2)c1-c1ccccc1	-6.52*	0.19*
CSCC[C@@H](C(=O)O)N1Cc2ccccc2C1=O	i	1.37
CN(C)NC(=S)Nc1cccc(C(F)(F)F)c1	i	-0.78
COc1ccc2sc(C)[n+](C)c2c1	i	-2.31
CC(C)C(=O)Nc1c2c(nn1-c1ccc(F)cc1)CS(=O)(=O)C2	i	-0.05
CCOC(=O)c1nnn(-c2nonc2N)c1C	i	-0.86
CNC(=O)NC(=O)Cn1cnc2sc(-c3ccccc3)cc2c1=O	i	-1.04
CC1=C(C(=O)Nc2ccccc2)C(c2ccco2)C(C#N)=C(SCc2ccccc2)N1 (stereo unspecified)	-6.52*	-0.71*
COC(=O)c1ccccc1NC(=S)NC(=O)c1ccc(C)cc1	i	0.75
O=C(CCSc1nnc(-c2ccco2)o1)N1CCOCC1	i	-0.65
CCOc1ccc2nc(N(CCN(CC)CC)C(=O)/C=C/c3cccs3)sc2c1	i	0.58

Single entries from above:
KCNQ2 inh baseline result of O=C(NCc1ccc(/C=c2\sc3n(c2=O)CCN=3)o1)C(=O)Nc1ccccc1 stands at 1.34
KCNQ2 inh baseline result of Cc1cccc(N2C(=O)SC(SC(=Nc3ccccc3)Nc3ccccc3)C2=O)c1 (stereo unspecified) stands at -0.46
KCNQ2 inh baseline result of CCOc1ccc2nc(N(CCN(CC)CC)C(=O)/C=C/c3cccs3)sc2c1 stands at 0.58
KCNQ2 inh baseline result of O=C(CCSc1nnc(-c2ccco2)o1)N1CCOCC1 stands at -0.65
KCNQ2 inh baseline result of CSCC[C@@H](C(=O)O)N1Cc2ccccc2C1=O stands at 1.37

Remaining list, next part:
SMILES	KCNQ2 inh	KCNQ2 inh baseline
CC(C)C[C@H](NC(=O)c1nc[nH]c1C(=O)NCc1ccccc1)C(=O)OC(C)(C)C	i	-0.3
S=c1[nH]nc(CCc2nc3ccccc3[nH]2)n1-c1ccccc1	i	2.23
O=C(CCc1ccccc1)NCCc1nc2ccccc2[nH]1	i	1.57
Cc1ccc(CSCC(=O)NN=C2CCN(C)CC2)cc1	i	-0.07
CCOC(=O)COn1c(SCC(=O)OCC)nc2ccccc2c1=O	i	0.13
COc1ccc(CCNC(=O)Cn2nnc(-c3ccc(N4CCOCC4)cc3)n2)cc1OC	i	0.11
O=C(CSc1nc(=O)n(CCN2CCOCC2)c2c1CCC2)Nc1ccc(OC(F)(F)F)cc1	i	1.15
O=C(Nc1ccccc1C(F)(F)F)c1c(F)cccc1Cl	i	0.07
N#CC(C#N)=Cc1cccn1-c1ccc(S(N)(=O)=O)cc1	i	0.58
COc1ccc(CCNc2ccc(C(CC(N)=O)NC(=O)Cc3cccc4ccccc34)cc2[N+](=O)[O-])cc1 (stereo unspecified)	i	0.02
CNC(=S)N(C)[C@H]1c2c(ccc3ccccc23)OC[C@H]1CO	i	-0.75
CCn1cc([N+](=O)[O-])c(C(=O)N2N=C(c3ccccc3)CC2c2ccc([N+](=O)[O-])cc2)n1 (stereo unspecified)	i	1.99
Cc1cc(Nc2cc(Cl)nc(Sc3ccc(NC(=O)C4CC4)cc3)n2)n[nH]1	i	1.22
c1cncc(-c2nc(-c3cccs3)cs2)c1	i	-1.76
O=C1c2cc3ccccc3c(-c3ccccc3)c2C(=O)N1c1ccccn1	i	2
Cc1cccc(NC(=O)/C(C#N)=C/c2cccc([N+](=O)[O-])c2)n1	i	-2.41
CN1CCN(C(=O)C2=C[C@H](c3ccc4c(c3)OCO4)C[C@H](OCc3ccc(CO)cc3)O2)CC1	i	-0.24
O=C(Nc1ccc2c(c1)C(=O)OC2)c1ccc(C(F)(F)F)cc1	i	-0.4
CC(C)(C)C(=O)OCc1nc(-c2ccc(Cl)cc2)cs1	i	-0.8
CCN(CCCNC(=O)CC(C(=O)N1CCc2ccccc21)n1ccnc1)c1cccc(C)c1 (stereo unspecified)	i	-0.55

Brought forward from above: 2 entries, then new ones.
SMILES	KCNQ2 inh	KCNQ2 inh baseline
CC(C)(C)C(=O)OCc1nc(-c2ccc(Cl)cc2)cs1	i	-0.8
CCN(CCCNC(=O)CC(C(=O)N1CCc2ccccc21)n1ccnc1)c1cccc(C)c1 (stereo unspecified)	i	-0.55
C=C(C)Cn1c(N)cc(=O)nc1SCC(=O)Nc1cccc(C(F)(F)F)c1	i	-0.04
Cc1ccc(Cl)cc1NC(=O)CN1CCN(S(=O)(=O)N2CCOCC2)CC1	i	2.3
O=C1N/C(=N/Nc2ccccc2)S/C1=C\c1ccccc1	i	0.02
COc1ccc(N2CCN(C(=O)CN(c3ccc(Br)cc3)S(C)(=O)=O)CC2)cc1	i	-0.06
C[C@@H]1CN(Cc2cn(C)nc2-c2cccc(Cl)c2)C[C@H](C)O1	i	-0.01
CC(NC(=O)C1CCN(S(=O)(=O)N2CCC3(CC2)OCCO3)CC1)c1ccccc1 (stereo unspecified)	i	0.44
O=C(Nc1nnc(CC(=O)N2CCOCC2)s1)c1cccs1	i	-0.3
CCOc1ccccc1N(CC(=O)NC(C)(C)C)C(=O)Cn1nnc(-c2ccc(C)o2)n1	i	1.05
CCOc1ccc(C2C(C(=O)c3cccs3)=C(O)C(=O)N2Cc2cccnc2)cc1 (stereo unspecified)	i	-1.86
Cc1cccc(N(CC(=O)NC2CCCC2)C(=O)CCC(=O)Nc2ccccn2)c1	i	-1.07
CCOc1ccc(/C(O)=C/C(=O)C(=O)Nc2ccc(S(=O)(=O)NC(C)=O)cc2)cc1	i	1.58
OC1CCN(Cc2ccc(OCc3ccccc3)cc2)CC1	i	-0.44
CCCCn1c(N)c(N(CCOC)C(=O)c2sc3ccccc3c2Cl)c(=O)[nH]c1=O	i	0.46
COc1ccc(/C=N/Nc2nc(-c3cccnc3)nc3ccccc23)c(OC)c1	i	-1.76
NC(N)=N/N=C/c1ccc(OCc2ccccc2)c(OCc2ccccc2)c1	i	-0.8
COc1ccc(C(=O)NNc2ccccc2)cc1	i	3.15
CC(C)c1ccc(CNC(=O)C(=O)NCCCn2ccnc2)cc1	i	0.01
COc1ccccc1S(=O)(=O)c1ccccc1[N+](=O)[O-]	i	0.72
